rRNA inh HTS = selective bacterial rRNA inhibition in E. coli; E. coli WT GFP vs humanized-ribosome RFP mutants, fluorescence, 24 h; hits give low values; DMSO median 0, no signal -100; GFP signal change (wild-type ribosome), % (no concentration beside the values); hit rate 1.6% among 350,000; AID 720706;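 active = significant combined selectivity score with lowered wild-type GFP, culture density cut under 30%, mutant RFP and density less affected; inactive = any of these conditions unmet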; note: one replicate is shown; some compounds called inactive have numbers as strong as hits
AF4-AF9 inh = MLL-AF4/AF9 protein interaction inhibition; hit rate 0.47% among 350,000; AlphaScreen, biotin-AF4 peptide binding to FLAG-AF9; P42568; inhibition, % at 10 µM; AID 651704;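 active = every replicate reaching a set inhibition limit, whatever the replicate mean, cut at about 25% in these data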;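 note: 0% = plate neutral control median and 100% = total signal loss; the record names both 10 and 1 µM as test concentration; the first replicate is given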
Target sequence (P42568 whole entry, looked up): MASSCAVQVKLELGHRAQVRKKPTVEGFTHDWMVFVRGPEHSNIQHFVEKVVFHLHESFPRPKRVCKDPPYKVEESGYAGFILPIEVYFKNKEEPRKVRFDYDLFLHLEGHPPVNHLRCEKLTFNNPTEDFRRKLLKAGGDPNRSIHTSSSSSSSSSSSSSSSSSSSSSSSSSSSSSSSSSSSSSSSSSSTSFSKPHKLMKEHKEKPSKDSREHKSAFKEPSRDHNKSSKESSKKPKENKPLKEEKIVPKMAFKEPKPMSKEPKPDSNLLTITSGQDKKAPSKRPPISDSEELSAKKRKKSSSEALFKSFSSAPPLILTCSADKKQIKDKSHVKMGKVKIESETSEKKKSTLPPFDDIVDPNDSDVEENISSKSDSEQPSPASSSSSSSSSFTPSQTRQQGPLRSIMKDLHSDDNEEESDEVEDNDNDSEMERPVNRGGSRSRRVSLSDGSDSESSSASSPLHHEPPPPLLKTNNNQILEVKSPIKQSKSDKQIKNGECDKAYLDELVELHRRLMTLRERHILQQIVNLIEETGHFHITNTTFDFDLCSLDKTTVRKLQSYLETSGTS
rRNA inh HTS OD600 = second read-out of rRNA inh HTS, no call of its own (marks repeat the call); OD600 change, %; measured here: OD600 growth;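 optical density of the mix in the first replicate; 0 = DMSO median and -100 = no signal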
rRNA inh HTS RFP = further read-out of rRNA inh HTS, marked with its call; RFP signal change, %; measured here: RFP humanized mutant strains;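 first replicate; 0 = DMSO median and -100 = no signal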
An asterisk follows results filed as active.

SMILES | rRNA inh HTS | rRNA inh HTS OD600 | rRNA inh HTS RFP | AF4-AF9 inh
Cc1noc(C)c1S(=O)(=O)Nc1ccc2c(c1)C(=O)N([C@H](C)CO)C[C@H](C)[C@H](CN(C)C(=O)c1ccncc1)OCCCC[C@H](C)O2 | 1 | 4 | -1.0 | 0.8
CO[C@@H]1CN(C)C(=O)c2cc(NC(=O)c3ccccc3)ccc2OC[C@@H](C)N(C)C[C@@H]1C | 2 | 10 | -0.8 | -5.6
O=C(CN1CCOCC1)NCC[C@H]1CC[C@H](NC(=O)Nc2ccc(Cl)cc2)[C@@H](CO)O1 | 2 | 15 | 1.1 | 0.0
COc1cccc(S(=O)(=O)N[C@H]2CC[C@H](CCn3cc(-c4ccccc4)nn3)O[C@@H]2CO)c1 | -3 | -13 | -1.1 | 0.5
C[C@H]1CN([C@@H](C)CO)S(=O)(=O)c2ccc(C#Cc3ccncc3)cc2O[C@H]1CN(C)C(=O)C1CCCCC1 | -6 | -16 | 0.8 | 1.6
CO[C@H](CN(C)S(=O)(=O)c1cn(C)cn1)[C@H](C)CN(C(=O)Nc1ccc(C(F)(F)F)cc1)[C@@H](C)CO | -57 | -83 | -20 | -3.9
CN(Cc1cn(Cc2ccc(Cl)cc2)nn1)C1CN(Cc2cn(Cc3ccc(Cl)cc3)nn2)S(=O)(=O)C1 (configuration not stated) | -45 | -70 | -7.3 | -0.4
CC(=O)N1[C@H](CO)[C@H](c2ccc(-c3ccccc3F)cc2)[C@@H]1CNC(C)C | 1 | 4 | 4.0 | -0.1
C[C@@H]1CN([C@H](C)CO)C(=O)c2cccc(NS(=O)(=O)c3ccc(Cl)cc3)c2O[C@@H]1CN(C)C(=O)Nc1ccccc1 | -5 | -8 | -0.5 | -5.3
C[C@H](CO)N1C[C@H](C)[C@@H](CN(C)C(=O)CC2CC2)Oc2ncc(C#C[C@@H](C)O)cc2C1=O | -4 | -3 | -1.3 | -1.2
Cc1noc(C)c1NC(=O)N(C)C[C@H]1Oc2ccc(NC(=O)Cn3cnnn3)cc2C(=O)N([C@@H](C)CO)C[C@@H]1C | 3 | 5 | 0.9 | -2.8
CCCc1cn(CC[C@H]2CC[C@@H](NC(=O)Nc3ccccc3F)[C@H](CO)O2)nn1 | -2 | 2 | 0.0 | -2.3
C[C@@H]1CCCCO[C@@H](CN(C)C(=O)Nc2ccccc2)[C@H](C)CN([C@@H](C)CO)C(=O)c2cc(NC(=O)Nc3ccc4c(c3)OCO4)ccc2O1 | -2 | -8 | -0.4 | -1.0
COc1ccccc1CNS(=O)(=O)CCNC1CC1 | 6 | 19 | 0.5 | -3.7
COCC(=O)N1[C@H](CO)[C@H]2c3ccccc3NC[C@H]21 | 4 | 3 | -4.6 | -0.3
C[C@H](CO)N1C[C@H](C)[C@H](CN(C)C(=O)Nc2ccc3c(c2)OCO3)OCCCC[C@H](C)Oc2ccc(NC(=O)Nc3ccc(C(F)(F)F)cc3)cc2C1=O | 1 | 12 | -1.5 | -1.2
O=C1CN(S(=O)(=O)Cc2ccccc2)C[C@H]2[C@@H](c3ccc(C#Cc4cccc(F)c4)cc3)[C@H](CO)N12 | 3 | -15 | 3.4 | -4.4
C[C@@H]1CN([C@@H](C)CO)C(=O)c2cccc(N(C)C)c2O[C@@H]1CN(C)Cc1ccccc1 | 2 | -3 | -9.4 | -1.4
Cc1ccc(S(=O)(=O)NCC[C@@H]2CC[C@@H](NC(=O)c3ccccn3)[C@H](CO)O2)cc1 | 0 | 4 | -6.8 | 1.0
C[C@H]1CN([C@@H](C)CO)S(=O)(=O)c2ccc(C#CC(C)(C)O)cc2O[C@H]1CN(C)C(=O)CN(C)C | 4 | 10 | 1.2 | -1.9
C[C@H](CO)N1C[C@H](C)[C@@H](CN(C)Cc2ccc(Cl)c(Cl)c2)Oc2ccc(NC(=O)CCN3CCOCC3)cc2CC1=O | -14 | -42 | 4.1 | 7.9
C[C@H]1CN([C@@H](C)CO)C(=O)c2cccc(NS(=O)(=O)c3ccccc3)c2O[C@H]1CN(C)C(=O)Nc1ccc2c(c1)OCO2 | 4 | 3 | -0.8 | 0.9
CC(=O)NCCNC(=O)C1Cc2c(-c3ccc4c(c3)OCO4)ccnc2O1 (configuration not stated) | 9 | 16 | -3.4 | 0.1
C[C@@H]1CN([C@@H](C)CO)S(=O)(=O)c2ccc(C#C[C@@H](C)O)cc2O[C@H]1CN(C)C(=O)C1CC1 | 3 | 5 | -0.4 | -2.6
C[C@H]1CN([C@@H](C)CO)C(=O)c2cccc(NS(=O)(=O)c3ccc(F)cc3)c2O[C@H]1CN(C)Cc1ccc(C(=O)Nc2ccccc2N)cc1 | -3 | 1 | -1.9 | -1.5
C/C=C/c1cnc2c(c1)C(=O)N([C@@H](C)CO)C[C@H](C)[C@@H](CN(C)Cc1ccc3c(c1)OCO3)O2 | 4 | -1 | 0.0 | 3.5
CC(C)NC(=O)Nc1ccc2c(c1)C(=O)N(C)[C@@H]1CC[C@@H](CC(=O)Nc3ccccc3)O[C@H]1CO2 | 5 | 4 | -1.5 | 2.2
CN1CCN(C(=O)C[C@@H]2C[C@H]3c4cc(NC(=O)c5ccc6c(c5)OCO6)ccc4O[C@H]3[C@@H](CO)O2)CC1 | 3 | -1 | 0.2 | -2.0
COc1ccc(S(=O)(=O)Nc2ccc3c(c2)C(=O)N([C@H](C)CO)C[C@H](C)[C@@H](CN(C)C(=O)Nc2ccc(C(F)(F)F)cc2)OCCCC[C@@H](C)O3)cc1 | 2 | 4 | 1.2 | -4.2
C[C@H]1CCCCO[C@@H](CN(C)Cc2ccc(Cl)c(Cl)c2)[C@@H](C)CN([C@@H](C)CO)C(=O)c2cc(NC(=O)Nc3ccc(C(F)(F)F)cc3)ccc2O1 | -1 | 3 | 0.2 | 1.0
Cc1ccc(C(O)c2ncc(-c3ccc(F)cc3)[nH]2)cc1F (configuration not stated) | -4 | 2 | -1.1 | 5.0
C[C@H](CO)N1C[C@H](C)[C@@H](CN(C)C(=O)Nc2ccc(F)cc2)Oc2ccc(NC(=O)Nc3ccccc3)cc2C1=O | 4 | 4 | -0.3 | -1.5
CC(C)NC(=O)Nc1cccc2c1O[C@H](CN(C)C(=O)NC(C)C)[C@H](C)CN([C@H](C)CO)C2=O | 6 | 4 | -4.3 | -2.7
CC(C)NC(=O)C1(C)CCN1C(=O)c1cccc(Cl)c1 (configuration not stated) | 3 | 5 | -1.0 | -0.8
CN1OC[C@@H]2CN(Cc3cc(Cl)cc(Cl)c3)[C@H](c3cccc(Br)c3)C[C@@H]21 | 10 | 20 | -1.7 | -1.5
COc1ccc(C#Cc2ccc3c(c2)O[C@H](CN(C)C(=O)c2ccccn2)[C@@H](C)CN([C@@H](C)CO)S3(=O)=O)cc1 | -4 | -8 | 26 | 1.9
CO[C@@H]1CN(C)C(=O)c2ccc(NC(=O)C3CC3)cc2OC[C@@H](C)N(C(=O)C2CCOCC2)C[C@@H]1C | 0 | 3 | -3.1 | 0.7
C[C@@H]1CN([C@@H](C)CO)C(=O)c2cc(NS(=O)(=O)c3cccs3)ccc2O[C@@H](C)CCCCO[C@H]1CN(C)C(=O)Nc1cccc2ccccc12 | -3 | -1 | 2.2 | 4.1
C[C@H](CO)N1C[C@H](C)[C@H](CN(C)C(=O)Nc2ccc(F)cc2)Oc2c(NC(=O)C3CCOCC3)cccc2C1=O | 2 | 2 | -0.9 | -1.3
O=C([C@H]1[C@H](CO)[C@H]2Cn3c(cccc3=O)[C@H]2N1Cc1ccccn1)N1CCC(Cc2ccccc2)CC1 | 1 | -4 | -0.7 | -0.6
CCc1nc2ccc(C(=O)NCCN3CCOCC3)cn2c1N(CC)CCOC | 4 | 13 | -3.1 | 0.3
C[C@H](CO)N1C[C@H](C)[C@@H](CN(C)Cc2ccncc2)OCCCC[C@H](C)Oc2ccc(N(C)C)cc2C1=O | -2 | 11 | -1.9 | 5.5
CCNC(=O)[C@@H]1[C@@H](CO)[C@@H]2Cn3c(ccc(C4=CCCCC4)c3=O)[C@@H]2N1C(=O)CC1CC1 | 2 | 1 | 0.0 | -1.2
O=C(C[C@H]1C=C[C@@H](NC(=O)CC2CC2)[C@@H](CO)O1)NCc1ccccc1 | 2 | 12 | -2.6 | -3.3
CO[C@@H]1CN(C)C(=O)c2ccc(NS(=O)(=O)c3cn(C)cn3)cc2OC[C@H](C)N(CCC(F)(F)F)C[C@@H]1C | 3 | -2 | 0.7 | -11
COc1ccc(NC(=O)N(C)C[C@H]2OCCCC[C@H](C)Oc3ccc(NC(=O)CCC(F)(F)F)cc3C(=O)N([C@@H](C)CO)C[C@H]2C)cc1 | 0 | -4 | 0.6 | 1.2
COc1ccc(OC(=O)N(C)C[C@@H]2OCc3ccccc3-c3ccccc3C(=O)N([C@H](C)CO)C[C@H]2C)cc1 | -1 | 1 | -1.3 | 14
COc1cccc(NC(=O)N2CC(=O)N3[C@H](C2)[C@H](c2ccc(C4=CCCCC4)cc2)[C@@H]3CO)c1 | -5 | -34 | 2.4 | 5.5
C[C@H](CO)N1C[C@H](C)[C@H](CN(C)C(=O)Nc2ccccc2)Oc2ncccc2C1=O | 5 | 5 | -3.7 | -8.4
C[C@@H]1CN([C@@H](C)CO)C(=O)c2cc(NS(=O)(=O)c3ccc(F)cc3)ccc2O[C@H]1CN(C)Cc1ccncc1 | -3 | -7 | 0.8 | -6.8
COc1ccc(S(=O)(=O)Nc2ccc3c(c2)C(=O)N([C@H](C)CO)C[C@H](C)[C@@H](CN(C)Cc2ccc(C(F)(F)F)cc2)O3)cc1 | 0 | -6 | 2.8 | 3.2
CCCCCCCCNCCS(=O)(=O)NN1CCOCC1 | 11 | 10 | -0.3 | -105
COc1ccc(S(=O)(=O)N(C)C)cc1NC(=O)c1ccc2c(c1)OCCO2 | -8 | -20 | 3.1 | -0.2
COc1ccc(C#Cc2ccc([C@H]3[C@H]4CN(C(=O)c5ccc(F)cc5)CC(=O)N4[C@H]3CO)cc2)cc1 | 3 | -2 | 2.8 | -4.5
CCC(=O)Nc1ccc2c(c1)OC[C@@H](C)N(Cc1ccncc1)C[C@H](C)[C@H](OC)CN(C)C2=O | -4 | 2 | -1.1 | -18
COCC#Cc1ccc2c(c1)O[C@@H](CN(C)Cc1ccc3c(c1)OCO3)[C@H](C)CN([C@@H](C)CO)S2(=O)=O | -11 | -29 | -3.1 | 8.7
CNC[C@@H]1Oc2ncc(C#CCC(C)C)cc2C(=O)N([C@H](C)CO)C[C@@H]1C | 5 | 22 | 0.9 | 1.3
C[C@@H](NC(=O)C[C@@H]1C[C@@H]2c3cc(NC(=O)c4cccnc4)ccc3O[C@@H]2[C@H](CO)O1)c1ccccc1 | -2 | 2 | -3.1 | -0.9
C[C@H](CO)N1C[C@H](C)[C@@H](CN(C)Cc2ccc(Cl)c(Cl)c2)OCCCC[C@H](C)Oc2ccc(NS(=O)(=O)c3ccc(F)cc3)cc2C1=O | -4 | -18 | 11 | -17
Cc1ccc(S(=O)(=O)N[C@H]2CC[C@@H](CC(=O)NCc3ccncn3)O[C@H]2CO)cc1 | -4 | 6 | -3.2 | -3.0

Whole records from above.
Shown for COc1ccc(S(=O)(=O)Nc2ccc3c(c2)C(=O)N([C@H](C)CO)C[C@H](C)[C@@H](CN(C)Cc2ccc(C(F)(F)F)cc2)O3)cc1 → rRNA inh HTS: 0; rRNA inh HTS OD600: -6; rRNA inh HTS RFP: 2.8; AF4-AF9 inh: 3.2
Shown for COc1cccc(S(=O)(=O)N[C@H]2CC[C@H](CCn3cc(-c4ccccc4)nn3)O[C@@H]2CO)c1 → rRNA inh HTS: -3; rRNA inh HTS OD600: -13; rRNA inh HTS RFP: -1.1; AF4-AF9 inh: 0.5
Shown for C[C@@H]1CN([C@@H](C)CO)C(=O)c2cc(NS(=O)(=O)c3ccc(F)cc3)ccc2O[C@H]1CN(C)Cc1ccncc1 → rRNA inh HTS: -3; rRNA inh HTS OD600: -7; rRNA inh HTS RFP: 0.8; AF4-AF9 inh: -6.8

Following part.
SMILES | rRNA inh HTS | rRNA inh HTS OD600 | rRNA inh HTS RFP | AF4-AF9 inh
O=C(N[C@@H]1CC[C@@H](CCNS(=O)(=O)c2ccc(F)cc2)O[C@@H]1CO)C1CCC1 | -1 | -2 | -0.3 | -0.1
C[C@H]1CN([C@@H](C)CO)S(=O)(=O)c2ccc(-c3cncnc3)cc2O[C@@H]1CN(C)C | 5 | 6 | 0.3 | -3.4
CC(C)NC(=O)N(C)C[C@@H]1Oc2ncc(-c3cccc(F)c3)cc2C(=O)N([C@H](C)CO)C[C@@H]1C | 0 | 10 | -6.0 | -2.1
C[C@H](CO)N1C[C@H](C)[C@@H](CN(C)C)OCCCC[C@H](C)Oc2ccc(NC(=O)Nc3cccc4ccccc34)cc2C1=O | 1 | 2 | -1.4 | 3.3
C[C@@H]1CN([C@@H](C)CO)S(=O)(=O)c2ccc(C3=CCCCC3)cc2O[C@@H]1CN(C)C(=O)C1CCC1 | -10 | -37 | 25 | 3.0
COc1ccc(-c2ccc3c(c2)O[C@@H](CN(C)C(=O)c2ccccc2F)[C@@H](C)CN([C@H](C)CO)S3(=O)=O)cc1 | -3 | -4 | -0.7 | -0.1

Screening results deposited in PubChem by Broad Institute.

An excerpt; the hit share may differ from the screen's.
